Screening data deposited in PubChem by several laboratories.
Vif A3G: inhibitors of Vif binding to APOBEC3G peptide, primary screen, biochemical, TR-FRET, GST-Vif 1-94, biotin-A3G peptide, dose response retest (AID 1117319). TR-FRET GST-Vif / biotin-A3G peptide binding; higher % means a stronger effect; test concentration not given here; strong numbers were not always called active. one-dose inhibition, %; IC50 in µM for titrated hits. hit rate 0.57% among 260,000;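 active = above the screen mean plus three standard deviations and confirmed in dose response; inconclusive = results disagree or hit not tested in dose response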;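 also: Vif residues 1-94 fused to GST binding biotinylated APOBEC3G peptide 110-148; 0% = full assay without inhibitor and 100% = GST in place of GST-Vif; retest series ran down from 100 µM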
RanGTP-Impb inh: inhibitors of RanGTP-importin-beta interaction, primary screen, biochemical, FRET, CFP-Ran, YFP-importin-beta, homogeneous. cell-free CFP-Ran/YFP-importin-beta FRET ratio. inhibition, % (concentration not given with the values). hit rate 1.1% among 300,000;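 active = most replicates above 15%; inconclusive = exactly half above 15%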;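 also: 0% = DMSO wells and 100% = Ran loaded with GDP instead of GTP; wells of about 40 µL received 100 nL stock; the first replicate is given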
Calb FLC: affects C. albicans growth with fluconazole | AID 1979 | C. albicans CaCi-2 (fluconazole-resistant clinical isolate) + fluconazole, Alamar Blue growth, 48 h | growth inhibition, % (concentration not given with the values) | hit rate 0.57% among 300,000;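 active = most replicates above 75%; inconclusive = exactly half above 75%; inactive = most below 75%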;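 also: all wells also contain fluconazole at 8 µg/ml as a sub-toxic cotreatment; 0% = median of DMSO wells and 100% = median of geldanamycin control wells; wells of about 8 µL received 7.5 nL stock; the first replicate is given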
LANA-H2A inh: blocks KSHV LANA binding to histone H2A/H2B. cell-free LANA-H2A/H2B peptide, fluorescence polarization. inhibition, % (concentration not given with the values). Q9QR71. AID 2629. hit rate 0.6% among 320,000; in the data active = inhibition mostly above about 10%, no sharp cut-off; inactive = mostly below about 6.7%;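 also: stock transfer was 7.5 nL into about 10 µL; 0% = median of vehicle wells and 100% = median of positive control wells; one replicate is shown; the record names a cut of 25% in any replicate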
B2AR ag: human beta-2 adrenergic receptor agonism by FAP; Am2.2-beta2AR cells, FAP receptor internalization, flow cytometry; reference of the scale not given here; response, % (test concentration not listed); hit rate 0.43% among 340,000;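 active = response above a set limit, near 3 SD of response in nonfluorescent compounds, cut at about 42% in these data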;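 also: stock transfer was 100 nL into about 11 µL; a reference agonist was the positive control; negative values mostly stem from fluorescent compounds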
Target sequence (P07550 whole entry, looked up): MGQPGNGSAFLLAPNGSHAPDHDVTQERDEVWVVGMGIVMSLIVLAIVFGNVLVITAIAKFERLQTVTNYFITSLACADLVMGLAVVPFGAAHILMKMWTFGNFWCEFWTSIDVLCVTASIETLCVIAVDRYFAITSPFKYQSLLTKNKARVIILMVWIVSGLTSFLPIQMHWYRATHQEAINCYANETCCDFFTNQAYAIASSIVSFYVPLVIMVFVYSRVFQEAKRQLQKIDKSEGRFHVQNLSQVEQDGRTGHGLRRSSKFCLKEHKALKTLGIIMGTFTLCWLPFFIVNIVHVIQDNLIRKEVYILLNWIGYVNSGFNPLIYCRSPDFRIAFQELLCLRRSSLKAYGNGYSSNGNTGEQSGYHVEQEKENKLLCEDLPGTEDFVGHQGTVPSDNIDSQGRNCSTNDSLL
HNF4A DNA FP: change in binding of human HNF4 alpha to DNA. P41235. HNF4a-FITC DNA binding, fluorescence polarization, 1 h. activity change, % at 10 µM. hit rate 0.3% among 360,000. AID 1224865; in the data active = activity change above about 30%, passing the limit was not always enough;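 also: controls were the assay level and a saturating level of protein; the project sought stronger binding though the title names inhibitors; some compounds called inactive have numbers as strong as hits; positive values seem to mean higher polarization but the record does not say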
ALR inh: blocks human ALR sulfhydryl oxidase activity; AID 485317; inhibition, % (concentration not given with the values); hit rate 3.8% among 290,000; purified ALR, DTT oxidation, H2O2 HRP-luminol luminescence; P55789;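 active = mean and each replicate at 75% or more; inconclusive = only one of the two met; inactive = neither met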;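 also: stock transfer was 7.5 nL into about 7.5 µL; 0% = neutral wells and 100% = wells with inactivated enzyme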
Target sequence (P55789 whole entry, looked up): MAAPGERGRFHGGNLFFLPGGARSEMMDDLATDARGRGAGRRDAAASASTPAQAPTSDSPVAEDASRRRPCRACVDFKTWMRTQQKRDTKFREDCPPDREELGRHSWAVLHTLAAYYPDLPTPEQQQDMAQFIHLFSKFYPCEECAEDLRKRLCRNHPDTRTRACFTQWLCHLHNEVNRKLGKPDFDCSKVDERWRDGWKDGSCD
Active calls of the source: *; ? = inconclusive; nt = not tested or not shown; & = joins results of further samples; ! = repeats disagree. Not a hit list; about 6.3% have a hit in one of these screens.

SMILES	Vif A3G	RanGTP-Impb inh	Calb FLC	LANA-H2A inh	B2AR ag	HNF4A DNA FP	ALR inh
C[n+]1ccn(CC(=O)c2cc(C(C)(C)C)c(O)c(C(C)(C)C)c2)c1	-1%	1.1	1	-0.2	-8	-0.4	10
COc1ccc(-c2nc3c(c(SCC(=O)N4CCCC4)n2)COC(C)(C)C3)cc1	-1%	2.3	24	0.0	-4	3.2	nt
CC1(C)CC(=O)C/C(=N/NC(=O)CCCOc2ccc(Cl)cc2Cl)C1	2%	3.7	-7	-5.2	-17	-3.3	9
O=C1CC(c2ccccc2)CC(O)=C1C=NCCN1CCOCC1 (stereo not given)	5%	6.8	-2	7.6	6	4.4	-4
O=C(Nc1ccccc1N1CCOCC1)c1ccco1	nt	-1.4	-2	-2.4	1	3.2	37
Cc1cc(OC(=O)c2ccc(S(=O)(=O)N(C)C)cc2)cc(=O)o1	-1%	1.2	9	-2.5	-1	0.8	-1
CC(C)Oc1ccc(C(=O)NCc2ccco2)cc1	3%	-3.0	-10	-3.3	0	-0.7	4
CC1N(O)C(c2ccc(Cl)cc2Cl)N(O)C1(C)C (stereo not given)	3%	-4.9	-17	-0.5	7	0.4	22
COc1ccc(C2C(=O)N(C3CCCCC3)CC(=O)N2Cc2ccc3c(c2)OCO3)cc1 (stereo not given)	-1%	-0.6	5	nt	2	-2.9	nt
COc1cccc(-n2c(CN3CCN(c4cccc(C)c4)C(C)C3)nc3ccc([N+](=O)[O-])cc3c2=O)c1 (stereo not given)	21%	2.8	0	-3.9	-8	-1.9	-4
O=S(=O)(Nc1ncccn1)c1ccc(NS(=O)(=O)c2cc(Cl)ccc2Cl)cc1	4%	3.1	-21	-1.7	18	-4.2	-15
COC(=O)c1ccc(/C=C(\C#N)c2ccccn2)cc1	-6%	-2.4	15	-2.7	5	-1.3	2
COC(=O)c1nc2nc(-c3cccs3)cc(C(F)(F)F)n2n1	1%	3.0	-3	2.8	-3	3.6	0
Cc1cccc2sc(N3CCN(C(=O)c4cccs4)CC3)nc12	nt	-1.3	17	-0.2	-3	-4.4	-2
CC1CCc2c(sc3nc4n(c(=O)c23)CCS4)C1 (stereo not given)	17%	1.3	0	-1.8	-25	6.0	27
CC(C)CNS(=O)(=O)c1ccc(S(=O)(=O)N2CCN(CCC#N)CC2)cc1	?	-2.1	5	3.1	0	2.9	nt
CN(C)C(=O)c1ccc(=O)n(Cc2ccc(Cl)cc2Cl)c1	1%	3.2	1	0.7	-3	5.0	-7
CCOc1ccccc1C(=O)NCC(=O)OCc1csc(CC(=O)Nc2ccc(C)cc2)n1	9%	nt	nt	2.6	85*	13	12
COc1ccc(-c2noc(CNC(=O)Nc3ccc(F)cc3)n2)cc1	nt	1.4	11	2.9	7	0.5	-9
CSc1nc(C)cc(OCC(=O)N/N=C/c2ccccc2O)n1	-1%	1.1	8	-8.5	-8	-0.5	24
CC1=CC(C)(C)Nc2ccccc21	4%	-1.7	6	-354&-0.1	-3&4	2.3&-1.6	5&-3
COc1ccc(-n2nc(N)c(C(N)=O)n2)cc1	nt	-5.7	24	-4.4	-8	2.8	-4
Cc1nn2c(-c3ccc(F)cc3)ccnc2c1Br	nt	7.5	0	3.7	6	-2.9	-3
CCOCCCN(C(=O)c1snc(C(N)=O)c1N)C(C(=O)NC(C)(C)C)c1ccc(Cl)cc1 (stereo not given)	-2%	-1.7	1	-0.7	-8	1.1	-19
O=C1NC(=S)N/C1=C/c1ccc2ccccc2c1	nt	26*	-2	-0.1	5	2.6	-19
CCOC(=O)C(=Cc1ccc(-n2ccnc2)cc1)C(=O)OCC	0%	2.0	32	-6.2	-2	0.5	54
COc1ccc(N(CC(=O)NC2CCCCC2)C(=O)CNC(=O)c2cccs2)cc1	nt	3.8	1	2.6	-5	-2.0	-7
COc1ccc2c(ccn2S(=O)(=O)c2ccccc2)c1	nt	7.4	20	3.6	-10	-4.0	29
O=C(C=Cc1ccccc1Cl)c1ccccc1	-6%	nt	nt	nt	15	6.1	nt
COC(=O)/C=C/c1cc(F)ccc1S(=O)(=O)NC(C)(C)C	nt	-5.6	-17	2.3	-3	2.2	-9
Cc1ccc(C(C)(C)C)c(SCC(=O)Nc2nnc(C)s2)c1	0%	-0.4	8	3.2	3	0.5	-7
CC(=O)c1cccc(N2C(=NC(=O)CCc3ccccc3)SC3CS(=O)(=O)CC32)c1 (stereo not given)	nt	1.6	nt	-2.2	4	0.8	-2
CCC1CN(C(=O)N2CCC(C(=O)NCc3ccc(C)o3)CC2)c2cc(C)ccc2O1 (stereo not given)	nt	-2.6	17	11	3	6.7	2
CN(C)/C=N/c1nc2nccc(-c3ccccn3)n2n1	-3%	1.1	-1	-2.5	-1	0.6	1
CN(C)C(=O)/C(=C\c1ccc(-c2cccc([N+](=O)[O-])c2)o1)NC(=O)c1ccccc1	-11%	-0.3	16	-6.4	-9	-3.2	-7
Cc1ccc2cc(CN(C)C(=O)C3CCCO3)c(=O)[nH]c2c1 (stereo not given)	-3%	-1.6	2	5.3	-5	0.6	nt
CC(C)(C)NC(=O)/C=N/O	nt	-1.9	2	2.2	-2	1.8	9
CN1CCN(S(=O)(=O)c2cccc(C(=O)Nc3sc4c(c3C(N)=O)CCCC4)c2)CC1	1%	-3.0	2	-4.9	-17	-0.5	28
COc1ccc(Cl)cc1NC(=O)CSc1nnc(CNC(=O)c2ccco2)o1	5%	0.7	2	0.4	-10	-4.2	-14
COc1ccccc1CNC(=O)c1ccccc1C(=O)NC(C)(C)C(=O)NCc1ccccc1OC	2%	?	1	5.3	-6	0.6	-5
Cc1ccc2c(c1)Oc1ccc([N+](=O)[O-])cc1C(=O)N2	nt	0.6	3	-0.4	2	-1.4	-6
COc1cc(NC(=O)CSc2nnc(Cn3nnc4ccccc43)n2C)cc(OC)c1	-8%	2.3	1	-2.5	0	-3.6	-4
COc1ccc2nc(NC(=O)c3ccc(-n4nc(C)cc4C)cc3)sc2c1	11%	4.6	2	-0.5	1	-2.4	-6
O=C(NNC(=O)c1cc2ccccc2oc1=O)c1ccccc1	-12%	2.0	-7	-1.1	1	0.6	-9
COc1ccc(NC(=O)NN2CCN(C)CC2)cc1OC	-8%	8.6	-2	11	-2	-2.3	-10
CC(=O)c1ccc(N(CC(=O)NC2CCS(=O)(=O)C2)S(=O)(=O)c2ccc(Cl)cc2)cc1 (stereo not given)	10%	nt	nt	1.6	3	-1.0	-2
CC(C)(C)n1nnnc1CN1CCN(C(c2ccccc2)c2ccccc2)CC1	-5%	-3.6	-5	-2.1	17	-0.1	0
CC(C)CS(=O)(=O)C1=NN2C(=N)/C(=C\c3ccc(OC(=O)c4ccco4)cc3)C(=O)N=C2S1	nt	9.2	46	11	3	0.3	21
CCOC(=O)C1=C(C)N(CCCC(=O)O)C(=O)NC1c1ccccc1OC(=O)c1cccs1 (stereo not given)	nt	-1.1	15	0.7	nt	nt	0
COc1ccc(C(=O)N/N=C(\C)CC(=O)Nc2ccc(Cl)cn2)cc1	-5%	0.0	3	-9.6	1	1.4	45
Cc1ccc(S(=O)(=O)NCCC(=O)NCC(c2cccs2)N(C)C)cc1C (stereo not given)	6%	nt	nt	3.0	-5	-2.8	nt
CCOC(=O)Nc1ccc2c(c1)N(C(=O)CCN1CCN(CCO)CC1)c1ccccc1CC2	-5%	2.5	-7	4.9	-13	-1.4	-5
COc1ccccc1N1C(N)=NC(N)=NC12CCCCC2	-1%	?	-7	1.4	-11	0.3	-2
Cc1nc2ccccc2c(=O)n1/N=C/c1cccs1	-3%	2.2	-9	-8.5	-1	-1.9	-1
Cc1sc2ncn(CC(=O)NCc3ccco3)c(=O)c2c1-c1ccc(F)cc1	-6%	7.8	4	-4.7	0	-0.6	20
CCCCN(CCCC)CCCNC(=O)C12CN(Cc3ccccc3)CC1C(c1cccc([N+](=O)[O-])c1)=NO2 (stereo not given)	6%	0.7	-11	0.8	-22	1.5	-2
CCOC(=O)C1C(=O)NC(N2CCOCC2)=NC1c1ccco1 (stereo not given)	-2%	?	-6	5.9	5	1.2	4
N/C(=N\OC(=O)Cc1ccccc1)c1cccc(Br)c1	2%	1.9	-4	1.7	-5	-1.8	nt
COC(=O)c1ccc(CSc2nncn2N)cc1	-3%	7.6	-7	-1.1	0	-2.7	-17
Nc1c(Cl)cc(-c2csc(N3CCCC3c3nc4cc(Cl)c(Cl)cc4n3CCOCCO)n2)cc1Cl (stereo not given)	nt	8.6	3	-0.3	19	5.9	14
Next section.
SMILES	Vif A3G	RanGTP-Impb inh	Calb FLC	LANA-H2A inh	B2AR ag	HNF4A DNA FP	ALR inh
Cc1cc(=O)[nH]c(N/N=C/c2c(F)c(F)c(F)c(F)c2F)n1	-2%	-1.0	-6	-4.0	18	0.5	76*
O=C(O)c1ccc(S(=O)(=O)c2ccc3c(c2)C(=O)N(c2ccc(Br)cc2)C3=O)cc1	nt	0.1	2	5.4	-2	-3.3	-6
CO[C@H]1C=CO[C@@]2(C)Oc3c(C)c(O)c4c(O)c(c(C=NN5CCN(C)CC5)c(O)c4c3C2=O)NC(=O)C(C)=CC=C[C@H](C)[C@H](O)[C@@H](C)[C@@H](O)[C@@H](C)[C@H](OC(C)=O)[C@@H]1C	7.7µM*	-23	nt	49*!	-2	16	6
O=C1CN2C(=N1)N(Cc1ccccc1)c1ccccc12	?	-1.1	-3	2.6	-10	-2.0	5
Cc1ccc(C(=O)/C=C/c2ccc3ncccc3c2)cc1	nt	-4.7	45	-0.5	-3	2.0	74
Cc1oc(/N=C/c2ccc(O)cc2O)c(C#N)c1C	-3%	82*	20	-1.7	-9	-1.4	3
CCOc1ccc2[nH]c3c(N4CCN(c5ccccn5)CC4)ncnc3c2c1	1%	-4.1	41	-0.3	5	0.4	36
C#CNC(=O)C1(CC=C)CCNCC1	nt	?	-19	-2.5	6	1.5	5
CCN(CC)CCCNC(=O)c1cc2c(Cl)nc3ccccc3c2s1	29%	?	-16	0.2	-1	-0.7	-10
O=S(=O)(/N=C/c1c(O)ccc2ccccc12)c1ccccc1	nt	-1.7	2	-2.2	-2	-6.8	nt
Cc1cccc(Oc2ccccc2NC(=O)CSCC(=O)Nc2cc(C)on2)c1	-1%	nt	nt	nt	2	3.7	nt
O=C(CCCC(=O)N1CCN(c2ccc([N+](=O)[O-])cc2)CC1)c1ccccc1	-8%	2.4	4	4.7	-5	-1.0	7
O=C(NC(=S)N1CCc2ccccc21)c1ccco1	6%	2.0	?	-0.1	-10	1.1	10
Clc1ccc(-c2nnc(COc3ncnc4sccc34)o2)cc1	-5%	-1.5	4	-2.4	0	6.8	-5
COC(=O)c1ccccc1NC(=O)Cn1cnc([N+](=O)[O-])c1	nt	-2.7	1	4.0	-3	-1.3	7
Cc1ccc(/C=C/C(=O)OCC(=O)NCc2cccs2)o1	-1%	nt	nt	-6.0	-1	-3.0	-3
CC(C)(C)NC(=O)CN(C(=O)CSc1nnc(COc2ccccc2)o1)c1cccc(F)c1	0%	-0.7	2	-2.2	-3	-0.3	2
CCc1ncc(C)nc1CC	nt	nt	nt	-6.2	4	0.7	nt
CN(Cc1cnccn1)C(=O)c1cc(COc2cccc(C(F)(F)F)c2)on1	nt	3.0	-17	nt	-9	0.2	nt
CSc1ccc(S(=O)(=O)NCCCn2ccnc2)cc1	nt	-1.7	2	0.1	-1	2.4	nt
C=CCN1C(c2ccc(Br)cc2)=CS/C1=C(/C#N)c1nnc(N2CCOCC2)n1-c1ccccc1	nt	?	?	-4.4	3	-2.8	33
